Compound activity deposited in PubChem BioAssay by National Center for Advancing Translational Sciences (NCATS).
TRPML1 blocker – qHTS for Inhibitors of the Human Mucolipin Transient Receptor Potential 1 (TRPML1). Mucolipin-1 (Homo sapiens), Q9GZU1. TRPML1-inducible cells, Ca2+ dye fluorescence, FDSS; hits give low values; inhibition of EC80 agonist-evoked calcium signal. activity change, negative = inhibition, % (test concentration not listed). 390,000 tested, 0.02% active; in the data active means activity change below about -50%; inconclusive means about -30% to -50%; inactive means above about -30%;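 also: stimulus is agonist 54-4 at its EC80 concentration; % is scaled to controls: 0 for no effect and ±100 for the full control effect; compound concentration not given in the record; the text of the record puts the active cut at -80%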
Target sequence (Q9GZU1 whole entry, looked up): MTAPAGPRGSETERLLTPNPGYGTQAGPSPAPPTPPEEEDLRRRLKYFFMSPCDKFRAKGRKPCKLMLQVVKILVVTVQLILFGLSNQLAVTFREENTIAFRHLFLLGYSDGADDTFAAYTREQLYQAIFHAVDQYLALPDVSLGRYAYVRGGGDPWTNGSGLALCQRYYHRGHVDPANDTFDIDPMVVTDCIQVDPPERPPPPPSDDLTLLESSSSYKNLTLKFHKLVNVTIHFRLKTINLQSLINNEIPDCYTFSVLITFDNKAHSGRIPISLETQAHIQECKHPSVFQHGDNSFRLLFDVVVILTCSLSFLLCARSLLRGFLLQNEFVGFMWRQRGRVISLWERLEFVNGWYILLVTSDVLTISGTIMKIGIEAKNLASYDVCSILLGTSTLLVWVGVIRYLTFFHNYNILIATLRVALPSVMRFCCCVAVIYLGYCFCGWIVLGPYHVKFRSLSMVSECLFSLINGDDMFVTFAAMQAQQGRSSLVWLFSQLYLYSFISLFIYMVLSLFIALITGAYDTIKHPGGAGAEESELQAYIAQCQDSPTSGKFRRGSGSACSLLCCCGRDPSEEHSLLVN
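TRPML1-DL cells, Tet-induced overnight (~16 h, 37 °C) at 1,500 cells/well, were loaded with Ca8 no-wash dye plus quencher for 45-90 min at room temperature. Compounds were pinned during FDSS kinetic reading; agonist 54-4 at EC80 (4 uM final) then added.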
gsp ag – qHTS for Agonist of gsp, the Etiologic Mutation Responsible for Fibrous Dysplasia/McCune-Albright Syndrome: qHTS | gsp mutant cells, cAMP HTRF, 30 min; control for the full effect not named in the record | Potency, µM (titrated, usually from 76.9 µM), for the others: top-dose activation (cAMP increase), actives largely listed as activators | 340,000 tested, 0.13% active | AID 624287, 2012; active = well fitted activation curve with a large enough effect; inconclusive = small, poorly fitted or top-dose-only effect, or another doubt; inactive = no such curve, though single readings can be large or run the other way; cell line not stated here;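 also: phosphodiesterase inhibitor Ro 20-1724 added with compounds to block cAMP breakdown; potency is read from the fitted curve at half-maximal effect; nearly all actives have a fitted effect of over 60% in size; about a fifth of the inactives were tested at one dose only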
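Cells in DMEM/10% FBS with G418 were pretreated with compounds in DMSO plus […] (300 uM stock) for 30 min at 37C. cAMP was measured by HTRF (cAMP-d2 plus anti-cAMP antibody-K) after 30 min at room temperature.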
Menin MLL FP FL – qHTS Assay for Inhibitors Targeting the Menin-MLL Interaction in MLL Related Leukemias: Competition With Fluorescein Labeled MLL-derived Peptide; Fluorescence polarization, fluorescein-MLL peptide displacement from menin; FP activity change, % at 61.4 µM; 290,000 tested, under 10 active; AID 1766, 2009; inconclusive = falling polarisation curve, or a change in total fluorescence; inactive = total fluorescence flat and polarisation flat or rising; no compound was filed as active; the % refers to the polarisation; negative = inhibition;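 also: % of control where 0% means no effect; inhibitors lower the polarisation; unlabelled MLL peptide was the positive control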
ClpP mod – qHTS Assay for Activators of ClpP | ATP-dependent Clp protease proteolytic subunit (Bacillus subtilis (strain 168)), P80244 | purified B. subtilis ClpP, FRET peptide cleavage, 20 min | Potency, µM (series often up to 57.5 µM), without a hit: top-dose activity change, negative = active | 340,000 tested, 1.9% active | AID 651965, 2013; active = well fitted falling curve with a large enough effect; inconclusive = small, poorly fitted or top-dose-only effect; inactive = no such curve, though single readings can be large or run the other way; also: potency is read from the fitted curve at half-maximal effect; the source files actives as falling curves though it sought activators and does not explain the sign; nearly all actives have a fitted effect of over 65% in size; many hits overshoot -100%
Target sequence (P80244 whole entry, looked up): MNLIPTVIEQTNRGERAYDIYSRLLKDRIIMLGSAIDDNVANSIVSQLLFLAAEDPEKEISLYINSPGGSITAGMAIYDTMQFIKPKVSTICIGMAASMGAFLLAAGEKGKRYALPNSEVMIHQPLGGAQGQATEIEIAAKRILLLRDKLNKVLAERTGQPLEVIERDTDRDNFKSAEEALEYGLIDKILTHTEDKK
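Buffer: 100 mM Tris/HCl pH8, 100 mM KCl, 0.05% low protease BSA, 2.5% glycerol, 0.01% Tween-20. ClpP 10 microg/mL final; 20 min RT; delta FRET normalized to ADEP and DMSO controls.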
gsp antag – qHTS for Antagonists of gsp, the Etiologic Mutation Responsible for Fibrous Dysplasia/McCune-Albright Syndrome: qHTS; gsp-mutant cells, cAMP HTRF, 30 min; control for the full effect not named in the record; Potency, µM (top dose mostly 76.9 µM), without a hit: at the highest dose activity change, negative = inhibition, actives largely listed as inhibitors; 340,000 tested, 0.4% active; AID 624288, 2012; active = falling curve of any shape with a large fitted effect; inconclusive = falling curve, mostly with a smaller effect; inactive = flat or rising curve; cell line not stated here;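 also: intracellular cAMP measured with PDE inhibitor Ro 20-1724 present during compound exposure; potency is read from the fitted curve at half-maximal effect; % is scaled to controls: 0 for no effect and ±100 for the full control effect; nearly all actives have a fitted effect of over 65% in size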
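Cells, 2000/well, grown 16–24 h in DMEM 10% FBS with 0.5 mg/ml G418, then compounds plus […] (300 uM addition stock), 30 min at 37C. cAMP read by HTRF (cAMP-d2 and anti-cAMP antibody-K in lysis buffer) after 30 min RT.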
TRPML1 ag – qHTS for Agonists of the Human Mucolipin Transient Receptor Potential 1 (TRPML1); TRPML1-expressing cells, Ca2+ dye fluorescence, FDSS; host cell line not named in the record; reference of the full effect not given here; activation, % (concentration not given with the values); 410,000 tested, 0.12% active; AID 624414, 2012; in the data active = activation above about 50%; inconclusive = about 30% to 50%; inactive = below about 30%; also: 0% is about no effect; the text of the record puts the active cut at 80%
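Kinetic FDSS Ca2+ read in Tet-induced TRPML1-DL cells (ABD Ca8 dye plus quencher, 45-90 min RT loading): baseline, then compound, then 110 s agonist window; EC80 agonist 54-4 at 4uM final added afterwards for a 110 s antagonist window.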
The depositor's hits bear a star; ? = inconclusive; . = not tested or not shown; & = joins results of further samples; [ ] = another dose, or the depositor's remark. Rows are unselected; 2.1% or so of the library scored in one or more.

SMILES	TRPML1 blocker	gsp ag	Menin MLL FP FL	ClpP mod	gsp antag	TRPML1 ag
CCCCN(C)Cc1c(C)[nH]c2c(ccc3ccccc32)c1=O	9	15%	-22	3.6%	-13%	-0.1
COc1ccc(-c2ccc(CCC(=O)O)n2NC(N)=O)cc1	1	3%	-0.8	3.3%	-15%	0.4
COCCOC(=O)c1c(NC(=O)COC(=O)Cc2cccc(OC)c2)sc(C(N)=O)c1C	-19	17%	.	-6.5%	-20%	0.2
Cc1c(NC(=S)NC(=O)c2cccc(Br)c2)c(=O)n(-c2ccccc2)n1C	-11	-44%	-1.9	.	7%	-0.1
Cc1ccc(/C=C/C(=O)Nc2cc(C)on2)cc1	5	9%	-0.3	-16%	13%	-0.5
Cc1c(Cl)cccc1NC(=O)CSc1nc(=O)n(Cc2ccncc2)c2c1CCC2	26	.	.	-2.0%	.	-0.8
COc1cc(CNc2ccc(N3CCOCC3)c(C(=O)O)c2)ccc1OCC(N)=O	-16	3%	-0.2	-30%	-1%	0.7
COc1ccc(OC)c2[nH]c(=O)c(CCNC(=O)C3CCCCC3)cc12	9	-23%	3.5	-9.6%	-3%	0.6
COc1ccc(NC(=O)c2ccc(-n3cccn3)nc2)c(OC)c1	-4	-63%[inhibitor]	3.5	0.4%	9%	0.0
Cc1cc2cc(CN(Cc3ccco3)C(=O)NCc3ccccc3)c(=O)[nH]c2cc1C	-4	-7%	3.6	-3.3%	3%	0.3
CCOc1ncccc1C(=O)Nc1cccc(S(=O)(=O)N2CCCCC2)c1	-6	?	.	0.2%	11%	0.5
COc1ccc(-n2c(SCC(=O)Nc3nnc(C)s3)nc3c([nH]c4ccccc43)c2=O)cc1	16	.	.	-20%	.	3.2
O=C(N/N=C/c1ccc([N+](=O)[O-])o1)c1cc2ccccc2o1	-19	20%	3.3	2.2%	2%	0.6
COc1ccc(OC)c(C(=O)COC(=O)C2CC3CCCC(C2)C3=O)c1 (stereo not drawn)	8	-5%	-1.1	-5.8%	1%	-0.5
Cc1ccc(CC(=O)OCC(=O)NC2CCCC(C)C2C)cc1C (stereo not drawn)	29	-1%	5.6	0.1%	7%	2.2
O=C(c1cccnc1)N(Cc1ccccc1)c1ccccc1	6	-37%[inhibitor]	0.9	0.6%	1%	0.5
CC(C)C[C@@H](CNCC(=O)[C@H](C)NC(=O)c1[nH]cnc1C(=O)N[C@@H](C)CN)NC(=O)c1nc[nH]c1C(=O)N[C@@H](Cc1ccccc1)C(=O)O	-7	.	.	1.0%	7%	-0.4
COc1ccc(Cn2c(C)c(C)c(C#N)c2NC(=O)Nc2cccc(Cl)c2)cc1	2	-13%	?	-0.7%	21%	1.0
COc1ccccc1C1=NOC(COc2ccc3c(C)cc(=O)oc3c2)C1 (stereo not drawn)	-3	-2%	9.4	.	12%	2.4
C#CCn1c(CCNC(=O)c2ccco2)nc2ccccc21	16	?	-2.6	-3.1%	-6%	0.2
O=S(=O)(c1ccc(N2CCOCC2)nc1)N(Cc1ccccn1)Cc1ccccn1	2	22%[15.4 µM]	?	.	-5%	0.7
O=C(Nc1nc(-c2ccccn2)cs1)c1ccc(Br)s1	-7	13%	0.7	-2.0%	?	1.5
Cc1cc(=O)oc2cc(OCC(=O)Nc3ccc(CN4CCOCC4)cc3)c(Cl)cc12	22	0%	-2.9	-20%	-1%	0.5
CC1=C(C(=O)N(C(C)C)C(C)C)CC(CC(=O)NCCN2CCOCC2)C(=O)N1Cc1ccc(C(C)(C)C)cc1 (stereo not drawn)	-1	.	.	-0.8%	.	0.5
CC1=C(C(=O)OCc2ccccc2)C(c2cccnc2)n2ncnc2N1 (stereo not drawn)	-6	?	3.9	-1.6%	1%	-0.5
Nc1nc(NCCc2ccccc2)nc(NCc2ccccc2)c1[N+](=O)[O-]	.	26%	-7.2	1.2%	19%	.
O=C(CSCc1ccc(F)cc1)N1CCc2c([nH]c3ccccc23)C1c1ccc(F)cc1 (stereo not drawn)	20	.	.	-3.9%	.	-0.3
Cc1nccn1CC(O)COc1ccccc1 (stereo not drawn)	50	-12%	4.6	2.5%	-2%	0.3
Cc1nc2ccccc2n1CC(=O)N1CC(=O)Nc2ccccc21	-6	7%	-0.5	-2.8%	2%	-0.2
CN1C2=C(C(=O)CC(C)(C)C2)C(c2cccs2)C2=C1CC(C)(C)CC2=O	21	11%	.	.	-4%	2.4
Cc1ccc2nc(-c3ccccn3)cc(C(=O)NCCc3ccc(F)cc3)c2c1	2	-38%[inhibitor]	1.7	-5.4%	-23%	0.3
CC(=O)NCc1ccc(S(=O)(=O)NC(C)CCc2ccccc2)cc1 (stereo not drawn)	-4	?	0.0	.	-19%	-0.7
CCN(CC)CCCNC(=O)CCc1c(C)n(CC)c2cc(-c3ccccc3OC)nn2c1=O	18&-5	-2%	3.6	3.6%&3.8%	13%	-0.6&-0.9
Cc1ccc(CNC(=O)c2cccn2-c2nnc(N3CCCC3)s2)cc1	9	.	.	-7.7%	.	1.6
CCC(NC(=S)NCc1ccc(F)cc1)c1ccccc1 (stereo not drawn)	5	4%	-1.5	-4.3%	-6%	4.5
Nc1c(-c2ccc(Cl)cc2)cnn1C1CCS(=O)(=O)C1 (stereo not drawn)	-6	19%	2.3	0.5%	3%	-1.0
O=C(OCc1nnc(-c2ccc(Cl)cc2)o1)c1ccncc1	-8	-22%	-0.8	-2.8%	4%	-0.3
COc1ccccc1-n1c(C)nc(=O)c(-c2ccccc2)c1C	6	-21%	1.5	0.4%	-2%	-0.2
CC1Cc2ccccc2N1S(=O)(=O)c1cccc(C(=O)OCC(=O)NC2CCS(=O)(=O)C2)c1 (stereo not drawn)	-7	25%	-1.0	-0.8%	0%	-0.2
Cc1cccc(-n2ncc3c2CCCC3NC(=O)CCN2CCCCO2)c1C (stereo not drawn)	-17	-9%	-5.2	-1.2%	-10%	-0.3
COc1cccc(C(=O)OCC(=O)NC2CCCc3ccccc32)c1O (stereo not drawn)	0	-2%[15.4 µM]	.	-2.1%	-12%	0.2
CCCCCC(=O)N1C[C@@H](n2cc(-c3ccc(F)cc3)nn2)[C@H](O)C[C@@H]1c1ccccc1	-11	-57%[inhibitor]	.	-0.4%	.	0.0
CC(C)COP(=O)(c1ccc(N(C)C)cc1)C(O)c1ccncc1 (stereo not drawn)	7	3%	-4.3	-0.6%	-1%	-0.5
O=C1C=CC(=O)N1CCCCCCN1C(=O)C=CC1=O	-2	7%	2.3	5.3%	?	0.4
CCOc1ncccc1C(=O)Nc1cc(S(=O)(=O)N2CCCCC2)ccc1C	?	?	.	-1.6%	-4%	1.9
CN1Cc2c(N3CCOCC3)nc3sc(C(=O)c4ccccc4)c(N)c3c2CC1(C)C	2	18%[15.4 µM]	-1.4	.	-23%	0.4
COc1ccc(OC)c(S(=O)(=O)N2CCNCC2)c1	13	?	6.2	-0.3%	3%	0.4
CCCNC(=O)C(Cc1ccccc1)NC(=O)Cc1ccccc1 (stereo not drawn)	0	-21%	.	3.7%	12%	0.0
CCOC(=O)N1CCC(n2c(=S)[nH]c3cc(OC)c(OC)cc3c2=O)CC1	19	-33%[inhibitor]	4.9	0.3%	-1%	-0.1
CC1(C)C2CCC1(C)C(OC(=O)CSc1nc(N)cc(=O)[nH]1)C2 (stereo not drawn)	-11	-31%[inhibitor]	2.0	-0.1%	-4%	-0.4
Cc1csc(NC(=O)C2CC(=O)N(c3ccc4c(c3)OCCO4)C2)n1 (stereo not drawn)	-4	-78%[inhibitor]	.	1.5%	1%	0.0
Cc1ccc(CNC(=O)Cc2noc3ccccc23)cc1	-11	19%[15.4 µM]	-0.9	-1.4%	-3%	0.7
NC(=O)c1ccc(NC(=O)CNC(c2ccccc2)c2ccccc2)cc1	13	16%[15.4 µM]	9.4	1.7%	8%	-0.4
COc1ccc([N+](=O)[O-])cc1NC(=O)C1(c2ccccc2)CCOCC1	-20	-7%[15.4 µM]	-1.3	.	-2%	-0.4
CCCCc1ccc(NC(=O)N2CCN(c3cc(C)nc4ccccc34)CC2)c(C)c1	.	-32%[inhibitor]	1.1	?	?	.
CS(=O)(=O)c1ccc(-c2cccc(NC(=O)c3ccc(Br)o3)c2)nn1	-17	-22%[15.4 µM]	.	.	9%	1.7
CCC1CCCCN1C(=O)CCNS(=O)(=O)c1ccc2c(c1)oc(=O)n2C (stereo not drawn)	3	3%	.	-2.3%	7%	0.5
Cc1cccc(OCCCCn2c(CO)nc3ccccc32)c1	.	-10%	-0.4	-1.7%	5%	.
COc1ccc(C)cc1NC(=O)C1CC1c1ccccc1 (stereo not drawn)	-4	-1%[15.4 µM]	.	-1.9%	-8%	0.8
O=C(O)CC1(c2ccccc2)C(=O)c2ccccc2C1=O	-5	9%	6.6	5.0%	-17%	-0.6
(listing goes on)
SMILES	TRPML1 blocker	gsp ag	Menin MLL FP FL	ClpP mod	gsp antag	TRPML1 ag
CCC(C)NC(=O)c1cc2c(=O)n3cccc(C)c3nc2s1 (stereo not drawn)	1	0%[15.4 µM]	-6.7	0.4%	6%	-1.5
CCN(c1ccccc1)S(=O)(=O)c1cccc(C(=O)OCC(=O)Nc2ccc(NC(C)=O)cc2)c1	-12	-71%[inhibitor]	.	4.3%	-12%	1.2
O=C(O)c1ccc(N=Cc2c(O)ccc3ccccc23)cc1	19	-79%[inhibitor]	1.6	.	6%	-0.7
COc1ccc(CNC(=O)C2(CC3CC(c4ccccc4)=NO3)CCN(C(=O)C3CCCC3)CC2)cc1 (stereo not drawn)	11	.	5.7	0.3%	-15%	-0.6
Cc1ccc(S(=O)(=O)N2CCC(=O)N(C(CO)Cc3ccccc3)CC2)cc1 (stereo not drawn)	6	.	1.4	-2.1%	5%	-0.3
CCNC(=O)N1CCC(n2nccc2NC(=O)CCCc2ccccc2)CC1	16	?	.	-2.6%	6%	0.7
COCCNC(=O)c1cc2cc(Br)cc(OC)c2oc1=O	-4	13%	11	0.6%	11%	-0.5
Cc1cccc(-n2cnc(C(=O)N/N=C/c3ccccc3)c2)n1	2	-11%	0.9	0.9%	4%	-0.9
Cc1ccccc1C1=NC(c2ccc(F)cc2F)ON1 (stereo not drawn)	-2	-24%	6.9	-6.8%	-14%	-0.7
